ugtP null kill: kills S. aureus RN4220 lacking UgtP | 330,000 compounds, 0.54% hits | S. aureus RN4220 ugtP deletion, OD600 growth, 16 h; some inactives read as strong as hits | growth inhibition, % (concentration not given with the values) | AID 1259309;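 active means z-score under -3 and OD600 up to 0.15 on both plates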;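 further: plate controls were untreated wells for no effect and antibiotic for full effect; wells of about 80 µL received 100 nL stock; the first replicate is given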
BJeLR lethal: BJeLR cell viability loss; 300,000 compounds, 0.17% hits; AID 1554; inhibition, % (test concentration not listed); BJeLR (HRASV12) viability, CellTiter-Glo ATP luminescence, 48 h; reference of the scale not given here;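 active means replicate mean above 50%; inconclusive means above 50% but judged a plate artefact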;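 further: 50 nL library stock added to about 25 µL; numbers are from one replicate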
Sa RN4220 lethal: S. aureus RN4220 growth inhibition; OD600, 16 h; inhibition, % (concentration not given with the values); 330,000 compounds, 0.33% hits;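 active means z-score of -3 or lower and OD600 up to 0.18 on both plates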;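 further: plate controls were untreated cells for no effect and reference antibiotic for full effect; stock transfer was 100 nL into about 80 µL; one replicate is shown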
PrP 5UTR inh: suppresses PrP 5' UTR mRNA reporter expression. cell-based PrP 5' UTR mRNA reporter, plate reader. inhibition, % (test concentration not listed). 340,000 compounds, 0.35% hits. AID 488862;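 active means every replicate at 50% or more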;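 further: 0 = median of the neutral control wells; tested in H4 reporter cells; numbers are from one replicate; inactives centre near -14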
Mtb hypoxia rep: inhibitors of hypoxia-regulated fluorescent reporter in Mycobacterium tuberculosis. M. tuberculosis hypoxia-regulated fluorescent reporter, fluorescence. fluorescence inhibition, % (test concentration not listed). 300,000 compounds, 0.1% hits. AID 1159583;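 active means 35 to 45% if threefold the growth effect, above 45% if 1.5-fold the growth effect; inactive means the rest, general growth blockers included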;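 further: wells of about 50 µL received 100 nL stock; 0% = vehicle wells and 100% = reference inhibitor wells; whole bacteria with a GFP reporter of the hypoxia response; strong numbers were not always called active; many hits fall short of the cut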
Autofluor counter: compound fluorescence in toxin protease inhibitor counterscreen; fluorescence intensity (concentration not given with the values); compound autofluorescence counterscreen, microsphere flow cytometry; active compounds read high; 360,000 compounds, 3.1% hits;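 active means at least 3 SD above the mean of all compounds, about 16000 in these data; inconclusive means too few beads counted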;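 further: 100 nL of 1 mM stock went into each well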
Mtb hypoxia rep growth: further read-out of Mtb hypoxia rep, marked with its call; growth inhibition, %; measured here: M. tuberculosis growth (absorbance);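 0% = vehicle and 100% = reference antibiotic; read after six days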
Starred values were filed as active, the others as inactive; ? = inconclusive; nt = not tested or not shown; & = joins results of further samples. No enrichment for hits. Share with any hit: about 4%.

Fields: ugtP null kill	BJeLR lethal	Sa RN4220 lethal	PrP 5UTR inh	Mtb hypoxia rep	Mtb hypoxia rep growth	Autofluor counter
> O=C(Cn1ncc2c3ccccc3n(Cc3ccccc3)c2c1=O)NC1CCCC1
  5	8	4.1	-3	3	5	5756
> Cc1cc(Cl)ccc1OCC(=O)NCC(=O)NN=Cc1ccco1
  4	nt	1.8	nt	12	9	nt
> Cc1ccc(NC2=C(Cl)C(=O)OC2OC(=O)c2ccc(C)cc2)cc1 (stereo not drawn)
  -1	-2	4.4	-6	14	12	4578
> Cc1c(OCC(=O)NCCCN2CCCC2=O)ccc2c3c(c(=O)oc12)CCCC3
  15	4	3.7	-1	6	-4	4486
> O=C(NCC(=O)N1CCCC1)c1ccc(Br)cc1
  6	-8	2.4	-21	-3	-2	4910
> COC(=O)C1=C(C(=O)OC)[C@@H]2N(C)c3ccccc3[C@@]23C[C@@H](C(=O)OC)N(C(=O)c2ccc(Br)cc2)C3=N1
  nt	4	nt	-42	nt	nt	3601
> Cc1c(CC(=O)NC(C)C)c(=O)oc2cc3c(cc12)CCC(C)(C)O3
  12	8	-1.0	-51	2	11	3763
> CCOC(=O)c1[nH]c(C)c(/C(O)=C2\C(=O)C(=O)N(CCCn3ccnc3)C2c2ccncc2)c1C (stereo not drawn)
  1	0	0.7	-7	nt	nt	2794
> O=P(NC(c1ccccc1)C1CC1CO)(c1ccccc1)c1ccccc1 (stereo not drawn)
  5	nt	5.7	nt	20	8	nt
> CC(=O)c1cc(CC(=O)N2CCc3c([nH]c4ccccc34)C2c2ccccn2)cs1 (stereo not drawn)
  2	2	4.6	-14	-1	4	3438
> COC(=O)c1cccc(N2C(=O)C3CC=CCC3C2=O)c1 (stereo not drawn)
  0	4	7.8	3	11	13	3510
> COc1ccc(-c2nn(C)c(=O)c3ccccc23)cc1CNC(=O)NC1CCCCC1
  -3	4	0.7	nt	0	5	nt
> CCOc1ccccc1C=NNC(=O)C1CC1
  -1	nt	0.9	-7	13	6	3789
> COc1ccc(C2=C(Nc3ccc(C)cc3)c3ccccc3C2=O)cc1
  -4	5	1.8	-6	17	4	2544
> CCCCc1ccccc1NC(=S)NC1CCCC1
  -2	1	-2.2	-6	-12	0	5384
> CCOC(=O)N1CCC(N2CCCC(C(=O)c3ccccc3OC)C2)CC1 (stereo not drawn)
  2	-7	1.4	-7	7	7	2813
> CCCCOc1ccc(S(=O)(=O)N2CCCCCC2)cc1
  -2	-1	8.9	-38	12	7	10035
> O=C(Cc1ccccc1)NNC1=NS(=O)(=O)c2ccccc21
  9	-1	7.9	-6	9	1	4403
> COc1cccc(C(=O)NC2CCN(CC(=O)Nc3cccc(C)c3C)CC2)c1
  4	-7	2.9	-24	14	3	3110
> COc1cccc2cc(C(=O)NCc3ccccc3)c(=N)oc12
  -1	2	-1.9	-13	6	3	5410
> COCCN(CCOC)Cc1c(O)ccc2c3c(c(=O)oc12)CCC3
  9	-5	3.6	-4	24	10	3030
> COc1cccc(NC(=O)c2cc(Cl)nnc2Cl)c1
  -3	-8	-2.9	-13	-1	6	2819
> CN(Cc1ccon1)C(=O)C1CCC(=O)N(Cc2ccc(Cl)cc2)C1 (stereo not drawn)
  5	0	2.3	-17	-2	7	6259
> CN(C)c1ccc(NC(=O)CSc2nnc(C3CCCCC3)n2N)cc1
  -1	1	-0.7	-34	3	5	4488
> CCN(CC)CCN(C(=O)c1cccc([N+](=O)[O-])c1)c1nc2ccc(OC)cc2s1
  4	0	1.6	1	8	0	4649
> Cc1c(NC(=O)COc2ccccc2Cl)c(=O)n(-c2ccccc2)n1C
  3	nt	2.8	-17	8	-5	4121
> COC(=O)c1ccc(C(=O)OC)c(NC(=S)N2CC(C)CC(C)C2)c1 (stereo not drawn)
  10	2	6.3	2	9	3	2306
> CCc1nnc(NC(=O)CN2CCN(c3ccccc3F)CC2)s1
  3	0	2.9	-35	14	3	6068
> Cc1cccc(NC(=O)N2CCC(NC(=O)c3ccco3)CC2)c1
  4	8	1.0	9	0	3	3520
> Nc1ccc(N2CCN(C(=O)c3cccs3)CC2)cc1
  -13	-3	7.0	14	-10	0	2856
> NNC(=O)c1ccc(COc2ccc([N+](=O)[O-])cc2)o1
  19	3	3.6	-10	7	-4	nt
> CCCCOc1ccc(CSC(CC(=O)O)C(=O)O)cc1 (stereo not drawn)
  -2	4	-13	-14	18	9	2920
> Cc1nnc(NC(=O)c2ccccc2Br)s1
  -2	-5	-1.2	-27	-1	0	3260
> CCCCc1cc(=O)oc2cc(OCC(=O)Nc3ccccn3)ccc12
  -2	8	-1.2	-49	-10	-6	5647
> Cc1nc2ccccn2c1/C(O)=C1\C(=O)C(=O)N(CCCn2ccnc2)C1c1ccncc1 (stereo not drawn)
  nt	-10	nt	-7	nt	nt	3243
> COC(=O)c1ccccc1NC(=O)Nc1ncccc1C
  -3	2	-6.0	-10	7	3	2104
> Cc1c(NC(=O)C(C)OC(=O)c2cccnc2)c(=O)n(-c2ccccc2)n1C (stereo not drawn)
  3	-8	3.3	-10	-2	-2	2420
> Cc1ccc(OCCN2C(=O)NC3(CCc4ccccc4C3)C2=O)cc1 (stereo not drawn)
  1	-2	0.6	-8	2	-3	2042
> CC1CCC(NS(=O)(=O)c2ccc(Cl)s2)CC1 (stereo not drawn)
  6	nt	7.0	-26	6	4	4677
> COC(=O)c1cnc(Oc2ccc(NC(=O)NC(=O)c3c(F)cccc3F)cc2)cc1C(F)(F)F
  0	0	4.1	-16	13	2	4246

Arranged by length of the SMILES (descending): seven of the compounds above.
Fields: ugtP null kill	BJeLR lethal	Sa RN4220 lethal	PrP 5UTR inh	Mtb hypoxia rep	Mtb hypoxia rep growth	Autofluor counter
> COC(=O)c1cnc(Oc2ccc(NC(=O)NC(=O)c3c(F)cccc3F)cc2)cc1C(F)(F)F
  0	0	4.1	-16	13	2	4246
> Cc1c(NC(=O)C(C)OC(=O)c2cccnc2)c(=O)n(-c2ccccc2)n1C (stereo not drawn)
  3	-8	3.3	-10	-2	-2	2420
> Cc1ccc(OCCN2C(=O)NC3(CCc4ccccc4C3)C2=O)cc1 (stereo not drawn)
  1	-2	0.6	-8	2	-3	2042
> NNC(=O)c1ccc(COc2ccc([N+](=O)[O-])cc2)o1
  19	3	3.6	-10	7	-4	nt
> CCCCOc1ccc(CSC(CC(=O)O)C(=O)O)cc1 (stereo not drawn)
  -2	4	-13	-14	18	9	2920
> CC1CCC(NS(=O)(=O)c2ccc(Cl)s2)CC1 (stereo not drawn)
  6	nt	7.0	-26	6	4	4677
> Cc1nnc(NC(=O)c2ccccc2Br)s1
  -2	-5	-1.2	-27	-1	0	3260

(next part)
Fields: ugtP null kill	BJeLR lethal	Sa RN4220 lethal	PrP 5UTR inh	Mtb hypoxia rep	Mtb hypoxia rep growth	Autofluor counter
> CC(=O)C(=NNc1cccc(Cl)c1)Sc1nnc(C(O)c2ccccc2)n1-c1ccccc1 (stereo not drawn)
  5	nt	4.7	nt	7	-2	nt
> C#CCNc1cc(-c2ccccc2)nc2ncnn12
  16	2	7.9	-16	0	9	4078
> O=C(NCCC(=O)N(Cc1ccco1)Cc1cccs1)c1ccccc1Cl
  4	nt	2.7	-23	-3	2	5841
> CN(C)C(=O)c1c(NC(=O)c2ccccc2)sc2c1CCC2
  12	-4	5.6	-28	2	3	3205
> COc1ccccc1/C=C/C(=O)NCC(=O)N1CCC(N(C)C2CCCC2)CC1
  1	0	1.2	-16	-2	6	2695
> O=C1CCSc2ccc(Cl)cc2N1Cc1ccccc1
  5	-6	-1.5	-7	nt	nt	4393
> COc1ccccc1/C=C1\C(=O)Nc2ccccc21
  -12	0	3.8	-16	3	14	3594
> O=C(CSc1nncc(=O)[nH]1)NC1CCCCC1
  10	-3	-0.7	-29	10	8	3505
> COc1cc(C=O)c(Br)cc1OC1CCCC1
  46	5	-1.7	-8	nt	nt	3581
> O=c1cc(C(F)(F)F)[nH]c2c(OC(F)(F)F)cccc12
  44	17	61	-17	3	2	3432
> CCCCC(=O)Nc1cccc(-c2ccc3nncn3n2)c1
  8	5	2.6	-29	1	0	6432
> CCOP(=O)(OCC)C(Nc1cccc(C(F)(F)F)c1)c1ccc(C)cc1 (stereo not drawn)
  -9	21	6.1	-25	2	4	2692
> O=C(c1cnc2sccn2c1=O)N1CCN(c2ccccc2Cl)CC1
  2	-3	2.3	-23	11	8	3146
> CCOC(=O)c1sc(=S)n(-c2ccccc2OC)c1N
  2	-3	2.0	-39	nt	nt	2343
> O=C(NCc1ccccn1)C1CCN(S(=O)(=O)c2ccccc2C(F)(F)F)CC1
  -2	nt	2.0	-16	-2	5	?
> Cc1nc2ccccc2c(=O)n1N=Cc1ccc(C(C)C)cc1
  -3	nt	4.3	nt	-4	4	nt
> O=C(NNC(=S)NCc1ccccc1)c1ccc(OC(F)F)cc1
  3	-6	5.2	-5	1	1	2519
> COC(=O)[C@]1(Cc2ccccc2)N[C@H](c2ccc(-c3ccc(OC)cc3)cc2)[C@@H]2C(=O)N(C)C(=O)[C@@H]21
  nt	-5	nt	-17	nt	nt	4029
> COc1cc(N(C)C)c([N+](=O)[O-])cc1C(=O)N1CCN(Cc2ccccc2)CC1
  -2	1	1.1	9	2	-2	5318
> O=C(O)C1CC(=O)N(c2ccc(OCc3c(F)cccc3Cl)cc2)C1 (stereo not drawn)
  -8	1	2.3	-4	15	9	3281
> COc1ccc(-n2ncc3c(=O)n(CC(=O)Nc4ccc(S(=O)(=O)N5CCOCC5)cc4)cnc32)cc1
  16	2	6.6	-7	2	8	8847
> CC1(C)CC(=O)CC(=NNC(=S)NCc2ccccc2)C1
  4	nt	3.7	nt	4	-4	nt
> Cc1c(O)cccc1C(=O)N[C@@H](CSc1ccccc1)[C@H](O)CN1C[C@H]2CCCC[C@H]2C[C@H]1C(=O)NC(C)(C)C
  nt	-2&-9	nt	-4&-11	nt	nt	5438&6039
> COc1ccc(/C=C2/SC(=O)N(CC(=O)Nc3cc(C)on3)C2=O)cc1OC
  nt	6	nt	-19	nt	nt	10106
> O=C(CCN1C(=O)S/C(=C\c2ccc(F)cc2)C1=O)Nc1ccc(O)cc1C(=O)O
  1	5	0.8	-6	-11	-10	5729
> COc1ccc(N2C(=O)C(CC(=O)Nc3ccc(F)cc3)N(CCc3cccs3)C2=O)cc1 (stereo not drawn)
  2	7	3.8	-21	19	4	2525
> CCN1CCN(C(c2cccs2)C(C)NC(=O)CC(C)C)CC1 (stereo not drawn)
  4	-13	1.0	-54	7	6	9515
> CSc1ncccc1C(=O)OCC(=O)NCc1cccs1
  -7	nt	-4.5	-7	4	2	2928

Source: PubChem
